Source: PubChem BioAssay (National Center for Advancing Translational Sciences (NCATS))
NS1 function inh = qHTS Assay for Inhibitors of Influenza NS1 Protein Function. S. cerevisiae slowed by influenza A NS1, growth recovery by OD600. 0.4% of 270,000 active. Potency, µM (titrated, usually from 46.1 µM), for inactives: top-dose activity, positive = more growth; also: actives are rising curves; nearly all actives have a fitted effect of over 50% in size
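A cell-based growth assay was used: compounds that relieve NS1-induced slow growth of budding yeast raise OD600. Assay medium was yeast nitrogen base with ammonium sulphate and -URA supplement, pH 6.0, with 2% galactose.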
Lassa entry inh = qHTS for Inhibitors of binding or entry into cells for Lassa Virus; AID 540256, 2011; Lassa virus pseudotype entry inhibition, cell reporter; control for the full effect not named in the record; Potency, µM (top dose mostly 37.9 µM), for the others: at the top dose activity change, negative = inhibition, most hits filed as inhibitors; 1.2% of 300,000 active; active means well fitted inhibition curve with a large enough effect; inconclusive means small, poorly fitted or top-dose-only effect, or effect the other way; inactive means flat fitted curve, though single readings scatter; tested in HEK293 cells; also: % is scaled to controls: 0 for no effect and ±100 for the full control effect; nearly all actives have a fitted effect of over 50% in size; luciferase read-out
SARS PLP yeast = qHTS of Yeast-based Assay for SARS-CoV PLP; 0.19% of 330,000 active; S. cerevisiae expressing SARS-CoV PLpro, growth rescue; control for the full effect not named in the record; Potency, µM (doses to about 32.9 µM), for inactives: top-dose activity, positive = growth rescue; also: 0% is about no effect; nearly all actives have a fitted effect of over 55% in size; growth read by luminescence after 48 h
Marburg entry inh = qHTS for inhibitors of binding or entry into cells for Marburg Virus. Marburg virus pseudotyped entry inhibition, cell reporter; control for the full effect not named in the record; about a third of the inactives were read at about 46 µM. Potency, µM (series often up to 37.8 µM), without a hit: at the top dose activity change, negative = inhibition, most hits filed as inhibitors. 1.8% of 300,000 active. AID 540276, 2011; active = well fitted inhibition curve with a large enough effect; inconclusive = small, poorly fitted or top-dose-only effect, or effect the other way; inactive = flat fitted curve, though single readings scatter; tested in HEK293 cells; about a fifth of its hits are not listed in these tables; also: % is scaled to controls: 0 for no effect and ±100 for the full control effect; luciferase read-out
Cruzain inh noDet = qHTS Assay for Promiscuous and Specific Inhibitors of Cruzain (without detergent). 2.3% of 200,000 active. purified cruzain, Z-FR-AMC fluorescence, no detergent. AID 1476, 2009. Potency, µM, for the others: max response, negative = inhibition, most hits filed as inhibitors. Cruzipain (Trypanosoma cruzi), P25779; active = well fitted curve in the direction sought with a large enough effect; inconclusive = small, poorly fitted or top-dose-only effect, or another doubt; inactive = no such curve, though single readings can be large; an effect the other way counts as inactive or inconclusive;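 also: plate controls were enzyme without inhibitor for no effect and buffer without enzyme for full effect; nearly all actives have a fitted effect of over 40% in size; top concentration of the series not given in the record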
Target sequence (P25779 123-467 limits assumed): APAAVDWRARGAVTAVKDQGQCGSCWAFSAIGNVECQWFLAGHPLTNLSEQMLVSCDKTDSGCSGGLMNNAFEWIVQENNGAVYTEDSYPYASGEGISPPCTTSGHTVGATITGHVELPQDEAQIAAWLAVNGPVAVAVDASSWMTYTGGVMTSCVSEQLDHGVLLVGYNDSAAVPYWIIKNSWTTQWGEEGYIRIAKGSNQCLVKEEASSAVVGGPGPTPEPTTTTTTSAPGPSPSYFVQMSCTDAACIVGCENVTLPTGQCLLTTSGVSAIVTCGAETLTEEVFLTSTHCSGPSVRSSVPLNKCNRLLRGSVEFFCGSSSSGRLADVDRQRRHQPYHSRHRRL
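Detergent-free condition (0.00005% Triton X-100) in acetate buffer pH 5.5 with DTT. 1.5 nM enzyme and compound were pre-mixed 15 min, then 2 uM Z-FR-AMC substrate added; reaction progress from fluorescence change between first and third reads (60 s).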
Cruzain Triton = qHTS Assay for Promiscuous and Specific Inhibitors of Cruzain (with detergent) | Cruzipain (Trypanosoma cruzi), P25779 | purified cruzain, Z-FR-AMC fluorescence, 0.01% Triton | Potency, µM, for the others: max response, negative = inhibition, usual class: inhibitors | 0.43% of 200,000 active | AID 1478, 2009; active = well fitted curve in the direction sought with a large enough effect; inconclusive = small, poorly fitted or top-dose-only effect, or another doubt; inactive = no such curve, though single readings can be large; an effect the other way counts as inactive or inconclusive;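 also: plate controls were neutral wells for no effect and buffer without enzyme for full effect; nearly all actives have a fitted effect of over 40% in size; top concentration of the series not given in the record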
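Read-out: AMC fluorescence (360 nm excitation, 450 nm emission), four reads over 2 min, first-to-third difference used. Conditions: cruzain 1.5 nM, Z-FR-AMC 2 uM, pH 5.5 acetate, 5 mM DTT, 0.01% Triton X-100.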
RE007 growth inh = qHTS Assay for Inhibitors of the HIV-1 protein Vpr; 0.21% of 360,000 active; Potency, µM (titrated, usually from 92.2 µM), without a hit: at the highest dose activity change, negative = less growth; S. pombe RE007 Vpr strain, BacTiter-Glo ATP luminescence, 24 h; control for the full effect not named in the record; AID 651644, 2012; active = well fitted falling curve with a large enough effect; inconclusive = small, poorly fitted or top-dose-only effect; inactive = no such curve, though single readings can be large or run the other way;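 also: % is scaled to controls: 0 for no effect and ±100 for the full control effect; nearly all actives have a fitted effect of over 50% in size; the assay follows cell death caused by Vpr and the record does not say whether a fall means rescue or toxicity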
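Fission yeast strain RE007, carrying one chromosomally integrated HIV-1 vpr copy, was seeded at OD 0.01 in PMG+AL medium with 23 nL pinned compound. After 24 h at 30 °C and 99% humidity, viability was read by BacTiter-Glo luminescence.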
StopGo reporter = High Throughput Screening for Foot and Mouth Disease Virus Antivirals; human cells with a luciferase reporter of 2A StopGo recoding; control for the full effect not named in the record; Potency, µM (series often up to 57.9 µM), inactives show at the highest dose signal change, negative = less light; 1.2% of 410,000 active; AID 1159524, 2015; active = well fitted falling curve with a large enough effect; inconclusive = small, poorly fitted or top-dose-only effect; inactive = no such curve, though single readings can be large or run the other way; tested in HEK293T cells; also: % is scaled to controls: 0 for no effect and ±100 for the full control effect; nearly all actives have a fitted effect of over 45% in size; luciferase light after 4 h
Active calls of the source: *; ? = inconclusive; · = not tested or not shown; & = joins results of further samples; [ ] = dose if it differs, or a comment. Unless noted, calls follow the shape of the dose curve; as a rule, active means well fitted rising curve with a large enough effect; inconclusive means small, poorly fitted or top-dose-only effect; inactive means no such curve, though single readings can be large or run the other way. Potency is read from the fitted curve at half-maximal effect.

SMILES	NS1 function inh	Lassa entry inh	SARS PLP yeast	Marburg entry inh	Cruzain inh noDet	Cruzain Triton	RE007 growth inh	StopGo reporter
O=C(CNS(=O)(=O)c1c(F)cccc1F)NC1CCCc2ccccc21 (centres undefined)	·	-20.9%[46.1 µM]	-0.8%	-2.2%[46.1 µM]	·	·	-7.8%	-1.5%
CC(Oc1ccc(Br)cc1)C(=O)NCC(c1cccs1)N1CCOCC1 (centres undefined)	·	-2.8%[46.1 µM]	·	-1.4%	·	·	-8.7%	-18.6%
CN1C(=O)c2cccc3c(N)ccc(c23)C1=O	-3.2%	·	1.1%	·	·	·	4.9%	-18.0%
O=[N+]([O-])c1ccc(C(O)CN=Cc2ccc(O)cc2O)cc1 (centres undefined)	-39.5%	?	-0.1%	?	·	·	-11.0%	-7.4%
CC(=O)Nc1ccc(S(=O)(=O)Nc2nc(-c3ccc(C(C)(C)C)cc3)cs2)cc1	15.8%	17.4%	3.0%	12.3%	?	-7.7%	21.7%	-10.0%
CCC1CCCCN1C(=O)Nc1cc(Cl)ccc1OC (centres undefined)	·	2.5%[46.1 µM]	1.1%	18.1%[46.1 µM]	·	·	3.3%	-10.4%
CNc1cc(Cl)c2nonc2c1[N+](=O)[O-]	·	?	-33.0%	?	·	·	?	12.6µM*
O=S(=O)(c1ccccc1)N1CCC(n2cnc3ccccc32)CC1	-2.0%	·	3.7%	-3.6%[46.1 µM]	·	·	1.7%	?
C=CCNC(=O)C1CCN(c2c([N+](=O)[O-])cc(C(F)(F)F)cc2[N+](=O)[O-])CC1	-3.5%	10.4%	-1.2%	1.0%	7.0%	1.7%	-1.4%	-28.1%
COc1ccc(OC(=O)C(C)N2C(=O)c3ccccc3C2=O)cc1 (centres undefined)	-22.7%	?	-2.0%	12.2%	·	·	-1.9%	5.4%
CC1(NC(=O)CC[N+](C)(C)CCO)CS(=O)(=O)CC1S(=O)(=O)[O-] (centres undefined)	?	3.9%	7.5%	6.6%	1.9%	0.7%	·	·
N#C/C(=C\c1cccc([N+](=O)[O-])c1)c1ccccn1	3.9%	-18.2%[46.1 µM]	-8.9%	?	·	·	?	-21.7%
CCCCn1c(N)c(N(CC(C)C)C(=O)COC(=O)c2ccccc2NCCO)c(=O)[nH]c1=O	·	-5.8%[46.1 µM]	7.1%	-0.1%	·	·	4.4%	5.6%
CCn1cc(CNC(=O)CCSc2nc(-c3ccco3)cc(C(F)(F)F)n2)cn1	-0.1%	0.0%	-1.8%	-22.6%	?	-1.3%	2.6%	-29.6%
CCC1SC(CC)C(=O)N(CC(=O)NCCc2ccccc2)C1=O (centres undefined)	·	12.3%	0.3%	-3.6%	·	·	-2.0%	-11.2%
COc1cc(C2N(c3ccccc3)CCN2c2ccccc2)cc(OC)c1OC	-16.0%	7.7%	6.8%	-7.7%	-7.3%	-1.7%	0.6%	34.8%[activator]
Cc1ccc(CNC(=O)Nc2cn(CC(C)C)c(=O)c3ccccc23)cc1	·	9.2%[46.1 µM]	·	·	?	-14.4%	·	-8.8%
CCCc1c2c(cc3c(=O)cc(C(=O)OCC)oc13)CCCC2	-2.5%	·	0.1%	·	·	·	0.5%	0.0%
CNC(=O)c1cc(-c2ccc(Cl)cc2)n(-c2ccccc2)n1	-3.9%	-2.3%[46.1 µM]	-1.3%	14.1%[46.1 µM]	·	·	3.9%	-17.5%
CN(C)S(=O)(=O)n1cc(/C=C(\NC(=O)c2ccccc2Cl)C(=O)N2CCOCC2)c2ccccc21	8.6%	·	2.2%	·	·	·	3.4%	-6.4%
CCOC(=O)c1c(NC(=O)c2nc(SC)ncc2Cl)sc(C)c1C	·	-2.6%[46.1 µM]	·	5.9%[46.1 µM]	-7.5%	-0.8%	·	-5.9%
Cc1ccc(S(=O)(=O)/N=C2/NC(=O)/C(=C/c3cccnc3)S2)cc1	-3.0%	-6.3%	-2.7%	-16.6%	-5.2%	10.8%	-1.2%	39.7%[activator]
Cc1cc(=O)[nH]c(CN2CCOCC2)n1	-1.4%	-1.2%[46.1 µM]	1.7%	-1.0%[46.1 µM]	·	·	-7.4%	-10.4%
Cc1ccccc1OCC(=O)Nc1ccc(NC(=O)c2ccco2)cc1	-1.4%	?	-0.4%	-23.2%	·	·	5.8%	-1.3%
CN(C)CCCN(C(=O)c1ccco1)c1nc2ccc(Br)cc2s1	·	-5.8%[46.1 µM]	-3.5%	?	·	·	-9.7%	-3.3%
COc1cc(S(=O)(=O)N2CCn3cccc3C2C)ccc1NC(C)=O (centres undefined)	·	5.5%	-1.6%	2.4%	·	·	-1.5%	-7.8%
Cc1cc2oc(=O)cc(CN(C)Cc3ccccc3)c2cc1C(C)C	-10.6%	-3.1%	-6.4%	?	·	·	-11.5%	-23.6%
CC(NC(=O)c1ccccc1F)C1CC1 (centres undefined)	1.2%	6.4%	6.6%	-14.9%[46.1 µM]	·	·	-3.5%	-4.5%
CN(C)c1nc(Nc2ccc(F)cc2)nc(Oc2ccc(F)cc2)n1	11.2%	·	-2.1%	·	·	·	9.4%	-25.0%
CC1CCCCC1NC(=O)CSc1nnc(CC(=O)Nc2ccccc2F)n1C (centres undefined)	9.1%	17.4%[46.1 µM]	1.1%	10.0%[46.1 µM]	·	·	-7.9%	-7.0%
CCC1Oc2ccc(C)cc2N(CC(=O)N2CCN(c3ccc(F)cc3)CC2)C1=O (centres undefined)	6.1%	-15.6%	1.8%	-32.6%	5.2%	-6.4%	-10.7%	-27.2%
CCc1nc(N)c(C#N)c(-c2cccnc2)c1C	-2.2%	10.0%	14.9%	3.2%	5.3%	0.5%	-12.0%	-5.4%
Cc1ccccc1NC(=O)Cn1nnc2c(cnn2-c2ccc(F)cc2)c1=O	-1.9%	4.0%	7.5%	-3.0%	-6.6%	4.1%	12.1%	17.4%
O=C1C=C(O)CC(c2ccc(Cl)cc2)C1 (centres undefined)	?	10.6%	-4.0%	3.9%	?	-4.0%	-13.8%	-11.1%
O=c1oc2ccccc2c(Nc2cc3ccccc3cc2O)c1[N+](=O)[O-]	-0.4%	?	-1.7%	?	·	·	-17.6%	-0.1%
COc1nc(-c2ccc(Cl)cc2Cl)nc2ccccc12	-7.3%	35.7%[46.1 µM]	1.7%	17.7%[46.1 µM]	·	·	9.3%	6.6%
Cc1ccc(C(C)C)c(OCC(=O)NN=C2CCCCCCC2)c1	0.2%	-15.4%	-9.7%	-0.9%	-5.8%	-2.6%	15.9%	-26.6%
Cc1ccc(NC(=O)[C@H](C)NC(=O)C2CCN(C(=O)[C@@H](NC(=O)OC(C)(C)C)C(C)C)CC2)cc1	-2.2%	4.7%	0.5%	6.6%	·	·	39.9%	-13.1%
CC(=O)N/C(=C/c1ccc2c(c1)OCO2)C(=O)NCCCO	5.0%	-5.0%	-8.1%	-1.3%	?	-1.0%	16.0%	6.6%
CCCCn1c(N)c(N(CC(C)C)C(=O)CCCc2nc3ccccc3c(=O)[nH]2)c(=O)[nH]c1=O	·	5.4%[46.1 µM]	1.3%	4.7%	·	·	2.0%	-23.9%
COc1ccc(C(CNC(=O)c2cccc(Br)c2)N2CCCC2)cc1 (centres undefined)	3.5%	?	-0.4%	11.6µM*	18.9%	-0.4%	0.7%	-1.3%
CC(Sc1nnc(CN2CCCC2)n1Cc1ccccc1)C(=O)Nc1ccc(F)cc1 (centres undefined)	2.9%	-18.1%[46.1 µM]	2.2%	?	·	·	2.8%	18.8%
Cc1cc(C(=O)CSc2nnc(-c3ccc(Cl)cc3)n2CC2CCCO2)c(C)n1C (centres undefined)	6.1%	-22.2%	1.3%	-9.2%&-9.2%	-11.2%	-1.1%	4.8%	10.1%
O=C(NCc1ccccn1)c1c(Cl)cccc1Cl	-46.2%	-5.1%	4.4%	-1.0%	1.8%	1.6%	-1.7%	-5.1%
COc1ccc(NC(C)=O)cc1NC(=O)C1CCN(C(=O)Nc2ccccc2)CC1	·	-21.4%	·	10.6%	·	·	-0.5%	-26.2%
CC(=O)NC12CC3CC(C1)CC(C(=O)OCC(=O)Nc1c(F)cccc1F)(C3)C2	·	-3.5%	-2.2%	18.2%	·	·	12.2%	-11.7%
CC(=O)Nc1c(F)c(F)c(F)c(F)c1F	4.2%	·	-0.3%	·	·	·	-1.2%	-8.0%
Cc1ccc2nc(C)c(C(=O)N/N=C/c3ccco3)cc2c1	-1.0%	-5.6%	7.7%	?	-8.2%	-1.7%	2.0%	-10.4%
COC(=O)C1=C(C)NC2=C(C(=O)c3ccccc32)C1c1cccc(OC)c1 (centres undefined)	5.1%	·	0.8%	·	·	·	-6.6%	-12.5%
CCN1CCN(C(=O)c2cc(-c3ccc(Cl)s3)nc3ccccc23)CC1	-1.1%	·	-4.1%	·	·	·	-14.5%	0.0%
CSc1ccc(CN2CCCC(CO)(Cc3ccccc3)C2)cc1 (centres undefined)	5.0%	·	0.7%	·	·	·	-4.9%	-7.1%
O=C(NCCCO)c1nn(-c2ccc(Cl)cc2)nc1CO	·	20.8%[46.1 µM]	·	13.3%[46.1 µM]	-5.8%	2.9%	·	7.2%
O=C1c2ccccc2-c2cccc(C(=O)N3CCCCCC3)c21	-13.4%	3.5%	4.5%	?	-3.0%	-0.4%	-9.0%	1.6%
O=C(Nc1c2c(nn1-c1ccccc1)CS(=O)(=O)C2)C1CCCC1	-0.7%	20.5%	-5.5%	-2.8%	·	·	3.8%	-30.3%
Nc1nonc1-n1nnc(C(=O)N/N=C/c2ccc(Cl)cc2Cl)c1CN1CCOCC1	18.1%	1.7%[46.1 µM]	-0.7%	?	·	·	-26.0%	8.6%
O=C(O)CCNS(=O)(=O)c1cccc(Br)c1	?	·	-3.3%	·	·	·	26.5%	-15.3%
